# NS1 function inh = inhibitors of influenza NS1 protein function; S. cerevisiae slowed by influenza A NS1, growth recovery by OD600; Potency, µM (doses to about 46.1 µM), inactives show top-dose activity, positive = more growth; hit rate 0.4% among 270,000; AID 2326; also: actives are rising curves; nearly all actives have a fitted effect of over 50% in size
#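 In this qHTS, NS1 from influenza A is expressed in budding yeast, where it slows growth. Cells are switched from glucose to 2% galactose medium (pH 6.0, -URA), treated with compound, and growth recovery is read at OD600.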
# Cruzain noTriton = inhibitors of Trypanosoma cruzi cruzain without detergent; purified cruzain, Z-FR-AMC fluorescence, no detergent; Potency, µM, for inactives: max response, negative = inhibition, actives largely listed as inhibitors; hit rate 2.3% among 200,000; AID 1476; active = well fitted curve in the direction sought with a large enough effect; inconclusive = small, poorly fitted or top-dose-only effect, or another doubt; inactive = no such curve, though single readings can be large; an effect the other way counts as inactive or inconclusive;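 also: plate controls were enzyme without inhibitor for no effect and buffer without enzyme for full effect; nearly all actives have a fitted effect of over 40% in size; top concentration of the series not given in the record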
# Target sequence (P25779 123-467 limits assumed): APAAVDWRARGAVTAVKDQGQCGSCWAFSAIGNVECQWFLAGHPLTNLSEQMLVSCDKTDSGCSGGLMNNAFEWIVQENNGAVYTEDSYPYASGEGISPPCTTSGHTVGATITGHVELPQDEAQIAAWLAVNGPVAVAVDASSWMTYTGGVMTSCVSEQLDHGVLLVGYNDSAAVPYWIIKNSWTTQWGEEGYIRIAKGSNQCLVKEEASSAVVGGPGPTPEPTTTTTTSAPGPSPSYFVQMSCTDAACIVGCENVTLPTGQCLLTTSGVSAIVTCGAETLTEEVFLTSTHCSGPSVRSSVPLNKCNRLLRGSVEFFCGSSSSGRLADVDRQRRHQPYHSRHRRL
#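 Purified cruzain at 1.5 nM, pre-incubated 15 min with compound at room temperature in 100 mM sodium acetate pH 5.5, 5 mM DTT, 0.00005% Triton X-100. Reaction started with 2 uM Z-FR-AMC; AMC fluorescence increase over 60 s gives rate.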
# SARS PLP yeast = SARS-CoV PLP inhibition in yeast | Potency, µM (highest dose often 32.9 µM), without a hit: at the top dose activity, positive = growth rescue | hit rate 0.19% among 330,000 | S. cerevisiae expressing SARS-CoV PLpro, growth rescue; control for the full effect not named in the record; also: 0% is about no effect; nearly all actives have a fitted effect of over 55% in size; growth read by luminescence after 48 h
# MARV entry inh = inhibitors of Marburg virus binding or cell entry; Marburg virus pseudotyped entry inhibition, cell reporter; control for the full effect not named in the record; about a third of the inactives were read at about 46 µM; Potency, µM (doses to about 37.8 µM), inactives show top-dose activity change, negative = inhibition, most hits filed as inhibitors; hit rate 1.8% among 300,000; active = well fitted inhibition curve with a large enough effect; inconclusive = small, poorly fitted or top-dose-only effect, or effect the other way; inactive = flat fitted curve, though single readings scatter; tested in HEK293 cells; about a fifth of its hits are not listed in these tables; also: % is scaled to controls: 0 for no effect and ±100 for the full control effect; luciferase read-out
# StopGo reporter = FMDV 2A StopGo reporter, luciferase signal; Potency, µM (titrated, usually from 57.9 µM), without a hit: at the highest dose signal change, negative = less light; AID 1159524; human cells with a luciferase reporter of 2A StopGo recoding; control for the full effect not named in the record; hit rate 1.2% among 410,000; active = well fitted falling curve with a large enough effect; inconclusive = small, poorly fitted or top-dose-only effect; inactive = no such curve, though single readings can be large or run the other way; tested in HEK293T cells; also: % is scaled to controls: 0 for no effect and ±100 for the full control effect; nearly all actives have a fitted effect of over 45% in size; luciferase light after 4 h
# LASV entry inh = inhibitors of Lassa virus binding or cell entry | Lassa virus pseudotype entry inhibition, cell reporter; control for the full effect not named in the record | Potency, µM (top dose mostly 37.9 µM), inactives show at the top dose activity change, negative = inhibition, actives largely listed as inhibitors | hit rate 1.2% among 300,000 | AID 540256; active means well fitted inhibition curve with a large enough effect; inconclusive means small, poorly fitted or top-dose-only effect, or effect the other way; inactive means flat fitted curve, though single readings scatter; tested in HEK293 cells; also: % is scaled to controls: 0 for no effect and ±100 for the full control effect; nearly all actives have a fitted effect of over 50% in size; luciferase read-out
# Cruzain Triton = inhibitors of Trypanosoma cruzi cruzain with detergent; P25779; purified cruzain, Z-FR-AMC fluorescence, 0.01% Triton; Potency, µM, for the others: max response, negative = inhibition, most hits filed as inhibitors; hit rate 0.43% among 200,000; active = well fitted curve in the direction sought with a large enough effect; inconclusive = small, poorly fitted or top-dose-only effect, or another doubt; inactive = no such curve, though single readings can be large; an effect the other way counts as inactive or inconclusive;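 also: plate controls were neutral wells for no effect and buffer without enzyme for full effect; nearly all actives have a fitted effect of over 40% in size; top concentration of the series not given in the record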
#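 15 min RT preincubation of 1.5 nM cruzain with compound, then 2 uM Z-FR-AMC added; kinetic AMC fluorescence, 60 s delta. Triton X-100 0.01%, pH 5.5.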
# RE007 growth inh = less growth of the S. pombe RE007 Vpr strain; AID 651644; S. pombe RE007 Vpr strain, BacTiter-Glo ATP luminescence, 24 h; control for the full effect not named in the record; hit rate 0.21% among 360,000; Potency, µM (titrated, usually from 92.2 µM), for the others: at the top dose activity change, negative = less growth; active = well fitted falling curve with a large enough effect; inconclusive = small, poorly fitted or top-dose-only effect; inactive = no such curve, though single readings can be large or run the other way;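 also: % is scaled to controls: 0 for no effect and ±100 for the full control effect; nearly all actives have a fitted effect of over 50% in size; the assay follows cell death caused by Vpr and the record does not say whether a fall means rescue or toxicity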
#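 Fission yeast strain RE007, carrying one chromosomally integrated HIV-1 vpr copy, was seeded at OD 0.01 in PMG+AL medium with 23 nL pinned compound. After 24 h at 30 °C and 99% humidity, viability was read by BacTiter-Glo luminescence.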
# The depositor's hits bear a star; u = inconclusive; x = no result given; [ ] = remark or other dose. Unless noted, calls follow the shape of the dose curve; as a rule, active means well fitted rising curve with a large enough effect; inconclusive means small, poorly fitted or top-dose-only effect; inactive means no such curve, though single readings can be large or run the other way. Potency is read from the fitted curve at half-maximal effect.
canonical_smiles,NS1 function inh,Cruzain noTriton,SARS PLP yeast,MARV entry inh,StopGo reporter,LASV entry inh,Cruzain Triton,RE007 growth inh
N#CCc1ccc(OC(=O)c2cccnc2Cl)cc1,x,x,x,u,32.8%[activator],u,x,-8.8%
COc1ccccc1CN1CCNC(=O)C1CC(=O)NCC1CCOCC1 (stereo not given),11.5%,x,1.6%,-2.9%,-6.4%,3.5%,x,0.7%
CCc1ccc(S(=O)(=O)/N=C2\C=C(Nc3ccc(C(=O)O)cc3)C(=O)c3ccccc32)cc1,-2.5%,x,-2.3%,u,u,u,x,-13.2%
Cc1sc(NC(=O)CSc2nnc3scc(-c4ccccc4)n23)c(C#N)c1C,2.2%,-6.9%,-1.6%,u,-8.7%,-2.4%,4.6%,-1.4%
COC(=O)c1ccc(C(=O)N2CCCC(Nc3ccc(C(C)C)cc3)C2)nc1 (stereo not given),-26.9%,x,1.5%,x,-13.9%,x,x,-1.1%
O=C(Nc1cccc2ccccc12)/C(=C/c1ccc([N+](=O)[O-])cc1)NC(=O)c1ccccc1,u,u,5.0%,-4.3%,27.0%,-1.3%,2.5%,4.7%
COc1ccc(N(C)S(=O)(=O)c2cccc(C(=O)OCC(=O)N3CC(C)CC(C)C3)c2)cc1 (stereo not given),x,x,-3.5%,u,31.6µM*,u,x,6.0%
Cc1cc(-n2c(C)cc(C(=O)CN3C(=O)NC4(CCCCCC4)C3=O)c2C)no1,0.7%,5.5%,1.4%,-13.0%,x,1.1%,-1.2%,5.0%
CC(C)(C)OC(=O)NCC1CCC(C(=O)NC[C@H](CC(=O)O)c2ccc(Cl)cc2)CC1 (stereo not given in full),2.3%,x,2.1%,u,-5.0%,6.0%[46.1 µM],x,7.1%
O=c1oc(Cl)c(Cl)c2ccccc12,-10.1%,9.0%,x,u,u,u,-8.5%,18.9%
CCOC(=O)C1(CCOC)CCN(Cc2nc(C(C)C)cs2)CC1,2.8%,x,-1.5%,u,-17.0%,-0.4%[46.1 µM],x,-12.6%
CCOC(OCC)c1cn(Cc2ccc(C(=O)c3ccccc3)cc2)nn1,-8.9%,x,-8.1%,x,-29.7%,x,x,-4.5%
O=S(=O)(c1ccc(C2CCCCC2)cc1)N1CCCC1,-14.0%,-1.5%,-11.0%,0.0%,-6.9%,2.2%,-1.5%,10.0%
O=C(CSc1nc(=O)n2ccccc2n1)NC1CCCCC1,x,x,-5.9%,4.6%,6.5%,4.8%,x,0.1%
CCCNCc1cc(OCC)c(OCC(=O)Nc2ccccc2)cc1Br,2.9%,x,0.5%,x,-10.3%,x,x,8.3%
CCN(CC)S(=O)(=O)c1ccc2nc(NC(=O)c3ccco3)sc2c1,x,x,-1.0%,u,15.0%,u,x,-24.1%
COc1cc(/C=C(/C)[N+](=O)[O-])ccc1OCc1ccccc1Cl,-34.7%,0.7%,-80.8%,6.51µM*,22.4µM*,u,-8.4%,-18.1%
CCCCNC(=O)Nc1ncn[nH]1,-34.4%,x,3.1%,x,19.0%,x,x,1.4%
Cc1ccc(SC(C)C(=O)NCC(C)C)cc1 (stereo not given),-0.2%,0.3%,-2.3%,0.3%,x,15.7%,1.8%,17.5%
COc1ccc(OCC(=O)Nc2ccc(S(=O)(=O)N3CCOCC3)cc2)cc1,-13.2%,-4.4%,5.2%,u,-11.2%,-12.2%,2.6%,-0.2%
Cc1ccccc1C(=O)NNC(=S)NC(=O)COc1ccccc1,2.0%,2.3%,-12.6%,-24.1%,x,2.1%,-0.3%,-6.2%
COc1ccc(CCCc2nnc(SCC(=O)N/N=C\c3ccc(O)c(OC)c3)o2)cc1C,27.5%,u,-2.4%,u,22.4µM*,u,0.6%,-25.7%
CCn1cc(C=C2C(=O)NC(=O)NC2=O)c2ccccc21,2.8%,x,1.7%,6.9%[46.1 µM],-12.8%,3.6%,x,1.6%
CCN1N=C(c2ccccc2)CCC1=O,1.2%,x,5.1%,2.0%[46.1 µM],-3.3%,6.2%[46.1 µM],x,39.0%
CCOC(=O)c1sc2ccccc2c1OC(=O)c1ccccc1OC,11.0%,7.6%,-5.7%,x,-2.7%,x,-5.3%,-0.7%

# As a short view, 2 of the compounds above.
canonical_smiles,NS1 function inh,Cruzain noTriton,SARS PLP yeast,MARV entry inh,StopGo reporter,LASV entry inh,Cruzain Triton,RE007 growth inh
O=c1oc(Cl)c(Cl)c2ccccc12,-10.1%,9.0%,x,u,u,u,-8.5%,18.9%
CCOC(=O)C1(CCOC)CCN(Cc2nc(C(C)C)cs2)CC1,2.8%,x,-1.5%,u,-17.0%,-0.4%[46.1 µM],x,-12.6%

# The list continues.
canonical_smiles,NS1 function inh,Cruzain noTriton,SARS PLP yeast,MARV entry inh,StopGo reporter,LASV entry inh,Cruzain Triton,RE007 growth inh
Cc1cc(C)cc(N2CC(c3nc(-c4ccccc4C)no3)CC2=O)c1 (stereo not given),x,13.2%,x,x,-13.1%,-3.3%[46.1 µM],-7.8%,x
O=C(NCCO)Nc1ccc2nsnc2c1,5.1%,x,1.3%,x,1.0%,x,x,6.8%
Cc1cccc(Cn2cnc3c(nnn3Cc3ccc(Cl)cc3)c2=O)c1,0.7%,10.2%,-19.9%,-1.9%,u,-8.1%,-7.9%,-14.6%
CSCCC1NC(=O)N(CC(=O)Nc2c(C(C)C)cccc2C(C)C)C1=O (stereo not given),x,x,1.8%,-0.1%[46.1 µM],-6.1%,32.1%[46.1 µM],x,3.9%
CNC(=O)c1c(NC(=O)C2=COCCO2)sc2c1CCCC2,-55.1%,x,-12.1%,4.3%,57.6%[activator],-2.7%,x,-1.3%
CCOC(=O)CCP(=O)(O)C(O)c1ccc(OC)cc1 (stereo not given),-7.3%,7.9%,5.4%,20.7%,-0.9%,u,3.4%,23.3%
O=C(CCCn1c(=O)c2sccc2n(Cc2c(F)cccc2Cl)c1=O)NCc1ccccc1,x,-19.6%,x,15.3%[46.1 µM],-20.4%,3.7%[46.1 µM],3.3%,x
COc1ccc(C(=O)OCC(=O)NCC2CCCO2)cc1S(=O)(=O)N1CCCc2ccccc21 (stereo not given),-4.0%,x,-0.8%,-0.9%[46.1 µM],45.4%[activator],-14.4%,x,1.1%
Cc1noc(C)c1COC(=O)CCc1ccc(S(=O)(=O)N2CCCCC2)cc1,-12.7%,7.7%,1.3%,-1.7%,7.8%,17.6%,-0.6%,0.2%
Nc1ccc(N=Nc2ccccc2Cl)c(N)n1,-46.2%,x,-7.2%,x,46.9%[activator],x,x,-21.4%
N#CCCCN1C(=O)C(=C(C#N)C#N)c2ccccc21,2.5%,x,-0.9%,x,u,x,x,-2.8%
COc1cccc(C(=O)NCC2OCCc3ccccc32)c1 (stereo not given),x,-6.7%,x,u,47.7%[activator],18.0%[46.1 µM],-5.3%,x
CCN1CCN(CCCNC(=O)c2ccc3nc(Cc4ccccc4)oc3c2)CC1,x,6.1%,x,x,0.0%,u,-1.3%,x
Cc1ccccc1N1CC(C(=O)Nc2ccncc2)CC1=O (stereo not given),x,x,-2.3%,u,-2.6%,4.8%,x,5.0%
COC(=O)N(C)c1ccccc1C(=O)N1CCOCC1,2.8%,5.0%,7.3%,-9.8%,0.0%,-6.8%,2.8%,5.6%
COc1ccc(/C=C(\NC(=O)c2ccccc2)C(=O)N/N=C/c2sccc2C)cc1,-0.8%,-29.7%,2.9%,14.7%,-13.1%,u,-9.8%,-5.4%
Cc1cc(=O)[nH]c(NN=C(CC(C)C)CC(C)C)n1,-17.1%,-5.0%,-0.4%,1.8%,-16.1%,-2.7%,-3.7%,2.7%
CC(C)(C)NC(=O)C(=O)NN=C1CCCCCCCCCCC1,x,x,-0.6%,7.9%[46.1 µM],-0.4%,0.6%[46.1 µM],x,9.5%
CNC(=O)COC(=O)c1ccccc1NC(=O)c1ccco1,0.5%,x,1.0%,x,-14.1%,x,x,9.9%
O=C(N=C1SC2CS(=O)(=O)CC2N1c1ccc(Br)cc1F)C1CC1 (stereo not given),14.1%,x,8.3%,18.4%[46.1 µM],8.3%,1.5%[46.1 µM],x,-2.7%
O=C(O)c1nn(CCOc2c(Cl)cccc2Cl)c(=O)c2ccccc12,10.4%,x,6.9%,u,-3.2%,x,x,3.6%
COc1ccc(N2CCN(C(=O)CSc3nc4ccccc4nc3Cc3ccc(Cl)cc3)CC2)cc1,x,u,x,x,-26.1%,-11.6%[46.1 µM],-0.7%,x
O=C(NCCCN1CCOCC1)C(=O)N/N=C/c1ccccc1Cl,2.9%,x,1.6%,x,20.8%,x,x,1.4%
CC1CCC(NC(=O)c2cccc(S(=O)(=O)NCc3ccccc3)c2)CC1 (stereo not given),x,x,x,2.7%,30.6%[activator],u,x,-14.4%
O=C(CCC1CCCN(C(=O)c2ccsc2)C1)NCc1ccc(F)c(F)c1 (stereo not given),-27.8%,x,-1.3%,u,23.3%,u,x,-0.2%

# (continued)
canonical_smiles,NS1 function inh,Cruzain noTriton,SARS PLP yeast,MARV entry inh,StopGo reporter,LASV entry inh,Cruzain Triton,RE007 growth inh
Cc1cc(N2CCC(C(=O)NCC3CC3)CC2)nc(-c2ccccc2)n1,-9.6%,-1.5%,-3.8%,-4.4%[46.1 µM],-27.5%,6.7%,-2.6%,-3.1%
CC(C)[C@H](NC(=O)C1(c2ccccc2)CCN(C(=O)OC(C)(C)C)CC1)C(=O)O,0.9%,26.9%,0.2%,u,15.6%,1.2%,2.0%,-2.0%
Fc1ccc(C2CC(c3ccc(F)cc3)n3ncnc3N2)cc1 (stereo not given),-10.1%,-2.7%,-10.0%,-6.8%,-9.1%,15.5%,3.1%,-11.1%
CCCN1C(=O)/C(=c2\s/c(=C3\C=Cc4ccccc4N3CC)c(=O)n2-c2ccccc2)SC1=S,-2.2%,-4.8%,-24.1%,-26.7%,x,-15.2%,-5.1%,x
C=CCn1c(SCC(=O)NCc2ccco2)nnc1C1CCCCC1,x,x,0.8%,26.5%,6.0%,-5.8%,x,25.5%
